Assay outcomes: PubChem, PCMD
Calb biofilm kill – mixtures killing C. albicans biofilm; C. albicans biofilm persisters + clotrimazole, fluorescence viability; primary screen in compound mixtures of four per well; inhibition, % at 7.6 µM; actives 0.02% (n = 120,000); AID 1242;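 active = inhibition above 30.3% in the primary screen of four-compound pools, then above 30% when the compound was retested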;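 note: compounds exposed to preformed 24 h biofilms for 48 h; the number belongs to the whole pool; some results filed as inactive read as strong as hits; inactives centre near 12; 0% = biofilm with clotrimazole alone and 100% = kill control; retested singly at about 60 µM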
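Probe or stimulus – Clotrimazole 50 µg/mL co-treatment · System – C. albicans biofilms · Schedule – 24 h biofilm formation, then 48 h compound exposure, 37 °C · Evaluation – percent inhibition of biofilm viability · Technique – 2-h Alamar Blue fluorescence, 535/590 nm excitation/emission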
* hit, by the source's call. These rows are one share of the data; the hit share may differ from the screen's.

smiles,Calb biofilm kill
O=C(c1ccc(F)cc1)N1CCC(c2ccccc2)C1 (stereo not drawn),6.5
COc1ccc(-c2cn(-c3ccc(Cl)cc3)c3[n+]2CCCCC3)cc1,18.4
CC(NC(=O)c1cccc(C(F)(F)F)c1)C(c1ccccc1)N1CCOCC1 (stereo not drawn),0.9
COc1ccc(C(CC(=O)NCc2ccccc2)Sc2n[nH]c(-c3ccc(Cl)cc3)n2)cc1 (stereo not drawn),12.7
O=C1C=C(Nc2ccc(O)cc2)C(=O)c2ccccc21,9.2
COc1ccc(OC)c(NC(=O)CN(C)S(=O)(=O)c2ccc(Cl)cc2)c1,10.7
O=C(O)c1cccc(NC(=O)c2cn(-c3ccccc3)nc2-c2ccncc2)c1,16.4
COc1ccc(CNC(=O)CN(Cc2cccs2)C(=O)CCC(=O)Nc2ccccn2)cc1,23.9
CS(=O)(=O)c1ccc(C(=O)OCC(=O)NC(=O)C2CCCCC2)cc1[N+](=O)[O-],16.4
CCC(CC)=NNc1ccc([N+](=O)[O-])cc1[N+](=O)[O-],12.0
O=S(=O)(Nc1nc2ccccc2s1)c1ccc(Cl)nc1,5.3
CC(C)Nc1nc(NNc2nc(Cl)nc(NC(C)(C)C)n2)nc(NC(C)C)n1,28.6
CCn1nc(C)c(CN2CCCC(CO)(Cc3cccc(Cl)c3)C2)c1C (stereo not drawn),25.3
COCCNC(=O)CCCn1c(=O)c2ccccc2n(Cc2cccc([N+](=O)[O-])c2)c1=O,13.5
Cc1cc(C)n2nc(SCCOc3ccccc3)nc2n1,3.9
Cc1cc(C(=O)Nc2nccs2)c2cc(F)ccc2n1,5.3
CCN(CC)C(=S)NC(=O)c1cc(OC)c(OC)c(OC)c1,16.2
C=CCC(C(=O)OC)(C(=O)OC)c1ccc(C(F)(F)F)cc1[N+](=O)[O-],7.2
CCCOc1ccc(NC(=O)C2CC(=O)N/C(=N/N=C(C)/C=C/c3ccc(N(C)C)cc3)S2)cc1 (stereo not drawn),8.2
Clc1ccccc1/C=C/c1nc(-c2cccnc2)no1,12.4
Cn1cc(CNC(=O)c2cc(-c3ccc(Br)cc3)nc3ccccc23)cn1,-1.2
COc1cc(NS(=O)(=O)c2ccc(NC(=O)c3ccc(S(=O)(=O)N4CCCCC4)cc3)cc2)ncn1,18.0
CC1CCC(C(C)C)C(OC(=O)Cn2c(-c3ccc(F)cc3)[n+](C)c3ccccc32)C1 (stereo not drawn),22.4
Cn1ccnc1SCC(=O)Nc1cccc(S(=O)(=O)N2CCCCC2)c1,8.6
COc1ccc(-n2c(=O)c3ccccc3n(CC(=O)c3ccccc3)c2=O)cc1OC,12.4
Cc1ccc2c(CC(=O)N3CCOCC3)coc2c1,1.4
Nc1cnccc1C(=O)O,15.5
COc1ccc(OC)c(C(=O)c2c(C)oc3cc([N+](=O)[O-])c(O)c([N+](=O)[O-])c23)c1,18.6
COC(=O)c1cc(NC(=O)CN(C)Cc2ccccc2)cc(C(=O)OC)c1,7.1
C/C(=N\OC(=O)c1ccccc1)c1c(C)nc2cc(C)ccn12,12.8
O=c1cc(-c2ccc(Br)cc2)[nH][nH]1,9.2
O=C(O)c1cc(NN=Nc2ccc(Br)cc2)cc([N+](=O)[O-])c1,18.3
CCOC(=O)/C=C/C(=O)Nc1ccc(S(=O)(=O)Nc2c(C)cc(C)cc2C)cc1,19.4
CCS(=O)(=O)N1CCN(c2ccccc2)CC1,4.7
O=C(N/N=C/c1cccs1)c1cc(C2CC2)nc2ccccc12,15.7
CCOC(=O)N1CCN(C(=S)NC(=O)c2ccc(F)cc2)CC1,10.3
Clc1ncc(CSc2ccccc2)s1,20.1
COc1ccc(CN(C(=O)c2cc3ccccc3oc2=O)C2CCCCC2)cc1OC,17.7
O=C(CSc1nc2scc(-c3ccccc3)c2c(=O)[nH]1)N1CCCCC1,12.2
S=C(Nc1ccc(Br)cc1Cl)N1CCC2(CC1)OCCO2,13.1
O=C(CNC(=O)c1cccs1)N/N=C/c1ccc(O)cc1O,19.7
Cc1ccc(/C=C/C(=O)c2ccc(N3CCOCC3)cc2)s1,6.8
CC(C)c1ccc2[nH]c3nc(SCC(=O)N4CCOCC4)nnc3c2c1,6.0
CS(=O)(=O)N1CCc2cc(S(=O)(=O)N3CCCCC3)ccc21,14.9
C=CCn1c(SCC(=O)Nc2cc(OC)c(NC(=O)c3ccco3)cc2OC)nnc1-c1ccncc1,5.8
COc1ccc(NC(=O)CC(C)c2ccccc2)c([N+](=O)[O-])c1 (stereo not drawn),13.8
O=C(CSc1nnc2ccccn12)NCc1ccco1,10.2
CC(C)(C)OC(=O)N1CCC[C@H]1c1nnc(SCc2ccccc2)o1,17.7
CC(=O)Nc1ccc(NC(=O)C2CCCN2/C=C/C(=O)C(F)(F)F)cc1 (stereo not drawn),7.2
NNc1nc2sc3c(c2c(=O)n1C1CCCCC1)CCN(Cc1ccccc1)C3,14.1

More results.
smiles,Calb biofilm kill
Cc1ccn2c(CNCC3OCCc4ccccc43)c(C(=O)N3CCCCCC3)nc2c1 (stereo not drawn),13.1
CCNC(=S)Nc1cc(-c2ccc(Cl)cc2)[nH]n1,0.7
Cc1ccc(NC(=O)c2c3c(nc4ccccc24)CCC3)cc1,-0.3
Cc1ccc(/C=C/C(=O)NC(=S)N2CCN(c3ccc(F)cc3)CC2)cc1,8.9
COCCNC(=S)N/N=C/c1ccc(-c2ccc([N+](=O)[O-])cc2)o1,16.1
Clc1ccc2c(c1)-c1nnc(Br)n1-c1ccccc1S2,13.4
CCSC1=NCCN1C(=O)C(C)(C)Oc1ccc(Cl)cc1,8.6
CCN(CC)S(=O)(=O)c1ccc(N2CCCCC2)c(NC(=O)/C=C/c2ccc(OC)c(OC)c2)c1,17.9
O=C(CCNC(=O)c1ccc(Br)cc1)Nc1nccs1,-5.0
COc1cc(C(=O)NC2=C(C#N)CCC2)cc(OC)c1OC,11.0
FC(F)(F)c1ccnc(NCc2ccco2)n1,26.7
CCOC(=O)C1CCCN(C(=O)COc2ccccc2F)C1 (stereo not drawn),19.9
Cc1c(NC(=O)C(C)N(c2ccccc2)S(C)(=O)=O)c(=O)n(-c2ccccc2)n1C (stereo not drawn),2.2
O=C(NCc1ccccc1)Nc1cccn(Cc2c(F)cccc2Cl)c1=O,9.4
Cc1[nH]c2ccccc2c1SCC(=O)NNC(=O)Nc1ccc(OC(F)(F)F)cc1,13.7
Cc1cc(C)c2nc(SC(C)C(=O)NCC(=O)Nc3ccc(F)c(F)c3F)cc(C)c2c1 (stereo not drawn),4.0
C=CCN1C(=O)C(CC(=O)Nc2ccccc2)S/C1=N/c1nccs1 (stereo not drawn),17.3
COc1ccc(OC)c(-n2c(-c3cc(-c4ccco4)[nH]n3)n[nH]c2=S)c1,15.0
O=C(OCCCN1CCOCC1)c1ccc(O)c(O)c1,29.9
COCCN(C(=S)Nc1ccc(C)cc1C)C(C)c1ccco1 (stereo not drawn),18.6
CCOC(=O)C(NCc1ccc(F)cc1)(NC(=O)c1ccccc1)C(F)(F)F (stereo not drawn),15.2
Cc1ccc(C)n1-c1ccc(C#N)cn1,-4.8
Cn1c(CSCc2ccc(Cl)cc2)nnc1SCC(=O)Nc1nccs1,5.2
CCCC[n+]1c(C)sc2cc(OC)ccc21,7.0
Cn1cc(Br)c(C(=O)NNC(=O)c2ccc(Br)cc2)n1,15.6
Cc1nc2nc(SCC(=O)c3ccc([N+](=O)[O-])cc3)[nH]c2cc1Br,13.3
COc1ccc(/C=C/C(=O)C2CC2)cc1COc1c(C)cccc1C,4.9
Cn1nccc1C(=O)N1CCN(c2ccc(F)cc2)CC1,16.0
Cc1ccc(S(=O)(=O)N2CC(O)C[C@H]2C(=O)OCC(=O)c2ccccc2)cc1 (stereo partly drawn),23.4
O=C(CN1CCCC1)N1CCCc2ccccc21,10.1
Cc1ccc(S(=O)(=O)Nc2ccc(C(N)=O)cc2)cc1[N+](=O)[O-],10.8
CC(=NC(C)C)C1=C(O)CCC1=O,7.4
O=C(O)CCSC(=S)N1CCOCC1,19.5
COc1ccc(/C=C/C(=O)Nc2ccccc2C(=O)O)cc1,14.9
CCOc1ccc(-c2c(C#N)c(N)nc3sc(C(=O)c4ccccc4)c(N)c23)cc1,-5.3
CCCCNc1ccc(S(=O)(=O)c2cccc([N+](=O)[O-])c2)cc1[N+](=O)[O-],6.9
CCOC(=O)C1CCCN(c2c(C(=O)c3ccccc3)cnc3ccc(OC)cc23)C1 (stereo not drawn),3.0
COc1cc(/C=N/NC(=O)c2ccc(CSc3nncn3C)cc2)cc(OC)c1O,14.3
COc1ccc(N/C=C2\C(=O)CCc3c2oc2cc(Cl)c(O)c(Cl)c32)cc1,9.5
COc1cc(/C=C/CN2CCN(Cc3ccc(C)o3)C(CCO)C2)ccc1O (stereo not drawn),16.4
CCCCN(C(=O)CSc1nnc(-c2ccco2)o1)c1c(N)n(Cc2ccccc2)c(=O)[nH]c1=O,9.1
Cc1ccc(NC(=O)CCNS(=O)(=O)c2ccccc2)c(C(=O)c2ccccc2)c1,10.2
CCN(Cc1ccc(OC)c(F)c1)C(=O)CCl,-1.4
O=C(OCc1nnc(-c2ccc(Cl)cc2)o1)C12CC3CC(CC(O)(C3)C1)C2,13.9
NC(=O)c1ccccc1N/C=C1\CCCCC1=O,16.9
CC(C)Cc1nc2oc3c(NCC(C)O)ncnc3c2c2c1CCCC2 (stereo not drawn),30.1
CC1=C(CCN2CCN(C(C)C)C(CCO)C2)C(C)(C)CCC1 (stereo not drawn),5.7
Cc1ccccc1C(=O)Nc1ccc(N2CCCC2)cc1,10.9
O=C(Nc1cccc(C(F)(F)F)c1)C1CCCO1 (stereo not drawn),-4.2
Nc1ccn(Cc2cccc(Cl)c2)n1,10.3

As entered above.
Calb biofilm kill with `Nc1ccn(Cc2cccc(Cl)c2)n1` = 10.3
Calb biofilm kill with `Cc1ccccc1C(=O)Nc1ccc(N2CCCC2)cc1` = 10.9
Calb biofilm kill with `CCN(Cc1ccc(OC)c(F)c1)C(=O)CCl` = -1.4
Calb biofilm kill with `O=C(Nc1cccc(C(F)(F)F)c1)C1CCCO1` (stereo not drawn) = -4.2
Calb biofilm kill with `O=C(OCc1nnc(-c2ccc(Cl)cc2)o1)C12CC3CC(CC(O)(C3)C1)C2` = 13.9

Back to the main list with the six entries that preceded the break.
smiles,Calb biofilm kill
NC(=O)c1ccccc1N/C=C1\CCCCC1=O,16.9
CC(C)Cc1nc2oc3c(NCC(C)O)ncnc3c2c2c1CCCC2 (stereo not drawn),30.1
CC1=C(CCN2CCN(C(C)C)C(CCO)C2)C(C)(C)CCC1 (stereo not drawn),5.7
Cc1ccccc1C(=O)Nc1ccc(N2CCCC2)cc1,10.9
O=C(Nc1cccc(C(F)(F)F)c1)C1CCCO1 (stereo not drawn),-4.2
Nc1ccn(Cc2cccc(Cl)c2)n1,10.3
COc1ccc(-n2c(N)c(C(=O)NCc3ccco3)c3nc4ccccc4nc32)cc1OC,8.2
O=C(CCc1nnc(CCCCc2ccccc2)o1)NCCCc1cccnc1,10.9
Cc1cc(NS(=O)(=O)c2ccc(NC(=S)Nc3ccc(Cl)cc3C)cc2)no1,17.6
C/C(CCC(=O)O)=N/Nc1ccc([N+](=O)[O-])cc1[N+](=O)[O-],1.3
CC(C)(C)NC(=O)CSc1ccc(C(C)(C)C)cc1,6.0
COc1ccc(/C=C/C(=O)OCC(=O)NCCC2=CCCCC2)cc1OC,6.3
CC(=O)n1cc(Nc2ccc([N+](=O)[O-])cc2)c2ccccc21,12.7
CCOC(=O)C(=Cc1ccc(-n2ccnc2)cc1)C(=O)OCC,4.3
Cc1occc1C(=O)NNC(=S)NCc1ccccc1,8.3
O=C(NCC(c1cccs1)N1CCOCC1)c1ccccc1NS(=O)(=O)c1ccc(Cl)cc1 (stereo not drawn),16.9
CCCn1c(=O)n(N)c2ccccc21,19.6
Cc1nc(SCc2ccccc2)c2ccsc2n1,11.5
Cc1c(NC(=S)NC(NC(=O)C(C)(C)C)C(Cl)(Cl)Cl)c(=O)n(-c2ccccc2)n1C (stereo not drawn),20.8
CCOc1ccc(C(=O)C[n+]2ccccc2C)cc1,12.7
CC1=Nc2ccc(C)c3nc(C)cc(c23)N1c1ccc(C)cc1,-2.3
CC(C)c1ccc(N2C(=O)/C(=C/N(C)C)SC2=S)cc1,21.4
Cn1c(CC2Sc3ccccc3NC2=O)nnc1SCC(=O)c1ccc(Cl)cc1 (stereo not drawn),12.5
CCc1ccc(OCc2nnc(SCC(=O)Nc3cccc(C(=O)N4CCOCC4)c3)o2)cc1,12.2
CCOc1ccc(NC(=S)N2CCc3cc(OC)c(OC)cc3C2COc2ccc3c(C)cc(=O)oc3c2)cc1 (stereo not drawn),9.3
CC(C)CC(=O)NC(=S)Nc1ccc(F)cc1F,11.3
Cc1c(CNCCC2=CCCCC2)c(C(=O)O)c(C)n1Cc1ccccc1,9.7
C/C(=N\Nc1cccc2cccnc12)c1ccc(C)cc1,-1.0
Cn1nc(C(=O)Nc2nc3ccccc3[nH]2)ccc1=O,11.2
CCOC(=O)N1CCN(CC(=O)Nc2ccc(F)c(F)c2)CC1,10.5
COc1ccc(OCCCn2cc(/C=C3/C(=N)N4C=C(C)SC4=NC3=O)c3ccccc32)cc1,13.7
CCO/N=C(\C)c1c(O)cc(C(C)C)n(-c2ccccc2)c1=O,11.1
CCCN1C(=O)c2ccccc2NC1c1ccc(OC)c(CSc2ccccn2)c1 (stereo not drawn),13.1
